# Bioassay records deposited in PubChem BioAssay by National Center for Advancing Translational Sciences (NCATS).
# Menin MLL FP FL: inhibitors of human menin-MLL interaction, wild-type MLL peptide; FP activity change, % at 61.4 µM; 290,000 tested, under 10 active; Fluorescence polarization, fluorescein-MLL peptide displacement from menin; inconclusive = falling polarisation curve, or a change in total fluorescence; inactive = total fluorescence flat and polarisation flat or rising; no compound was filed as active; the % refers to the polarisation; negative = inhibition;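 note: % of control where 0% means no effect; inhibitors lower the polarisation; unlabelled MLL peptide was the positive control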
# PINK1 expr mod: PINK1 expression modulation | PINK1 immunofluorescence, high-content cytometry, 24 h | Potency, µM (doses to about 76.6 µM), inactives show at the top dose activation (PINK1 increase), hits mostly activators | hit rate 0.2% among 410,000; active = well fitted activation curve with a large enough effect; inconclusive = small, poorly fitted or top-dose-only effect; inactive = flat fitted curve, though single readings scatter; cell line not stated here;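 note: potency is the fitted concentration of half-maximal effect; % of control where 0% means no effect; nearly all actives have a fitted effect of over 65% in size; a mitochondrial uncoupler was the plate control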
#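 Compound titrations (5 concentrations, 24 h) on a stable cell line; DMSO and CCCP controls. Endpoint: fixed-cell PINK1 immunofluorescence with mitochondrial, cell and nuclear markers, scanned by microplate cytometer.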
# TRPML1 blocker: blocks the human TRPML1 channel | TRPML1-inducible cells, Ca2+ dye fluorescence, FDSS; active compounds read low; inhibition of EC80 agonist-evoked calcium signal | activity change, negative = inhibition, % (concentration not given with the values) | Q9GZU1 | AID 624415 | hit rate 0.02% among 390,000; in the data active means activity change below about -50%; inconclusive means about -30% to -50%; inactive means above about -30%;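 note: stimulus is agonist 54-4 at its EC80 concentration; % is set by controls: 0 for no effect and ±100 for the full control effect; the text of the record puts the active cut at -80%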
#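 Calcium fluorescence in TRPML1-DL cells induced overnight with Tet: a 110 s read after compound pin addition, then a 110 s antagonist read after challenge with 54-4 at 4 uM final (EC80).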
# TRPV1 PAM: enhances activation of the human vanilloid receptor TRPV1; Q8NER1; TRPV1-expressing cells, Fluo-8 calcium influx, capsaicin EC20 potentiation; host cell line not named in the record; control for the full effect not named in the record; potentiation, % at 8.33 µM; hit rate 0.02% among 320,000; AID 540277; active means potentiation above 80%; inconclusive means 30% to 80%; inactive means below 30%; note: 0% is about no effect
# Target sequence (Q8NER1 whole entry, looked up): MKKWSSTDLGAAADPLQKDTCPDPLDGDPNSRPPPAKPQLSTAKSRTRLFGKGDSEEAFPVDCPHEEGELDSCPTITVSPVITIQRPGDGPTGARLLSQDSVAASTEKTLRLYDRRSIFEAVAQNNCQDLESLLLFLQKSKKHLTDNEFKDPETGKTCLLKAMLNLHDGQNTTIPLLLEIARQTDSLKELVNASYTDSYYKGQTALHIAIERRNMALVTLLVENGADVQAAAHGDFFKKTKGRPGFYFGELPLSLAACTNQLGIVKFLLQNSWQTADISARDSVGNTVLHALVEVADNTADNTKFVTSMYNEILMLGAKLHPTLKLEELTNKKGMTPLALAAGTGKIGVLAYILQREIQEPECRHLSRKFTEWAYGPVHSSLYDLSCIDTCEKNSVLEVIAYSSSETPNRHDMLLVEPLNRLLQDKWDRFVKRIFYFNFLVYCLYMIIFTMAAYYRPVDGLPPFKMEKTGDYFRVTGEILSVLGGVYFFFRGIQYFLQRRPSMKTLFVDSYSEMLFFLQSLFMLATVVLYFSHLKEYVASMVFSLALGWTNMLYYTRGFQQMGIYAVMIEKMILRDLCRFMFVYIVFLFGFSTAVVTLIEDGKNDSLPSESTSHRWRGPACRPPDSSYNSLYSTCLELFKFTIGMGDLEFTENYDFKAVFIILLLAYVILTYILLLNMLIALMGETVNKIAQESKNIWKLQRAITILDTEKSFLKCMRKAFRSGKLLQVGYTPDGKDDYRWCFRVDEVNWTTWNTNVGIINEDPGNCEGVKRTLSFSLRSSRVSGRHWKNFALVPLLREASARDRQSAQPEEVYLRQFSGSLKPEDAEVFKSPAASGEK
#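 TRPV1-expressing cells were cultured overnight at 35.5C and loaded with Fluo-8 calcium dye for 40 to 90 min at room temperature. After a 10 s baseline, compound was added and calcium influx was read kinetically for 3 min (ex 480/em 520 nm).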
# ClpP mod: qHTS Assay for Activators of ClpP; hit rate 1.9% among 340,000; AID 651965, 2013; Potency, µM (top dose mostly 57.5 µM), for the others: top-dose activity change, negative = active; purified B. subtilis ClpP, FRET peptide cleavage, 20 min; ATP-dependent Clp protease proteolytic subunit (Bacillus subtilis (strain 168)), P80244; active = well fitted falling curve with a large enough effect; inconclusive = small, poorly fitted or top-dose-only effect; inactive = no such curve, though single readings can be large or run the other way; note: potency is the fitted concentration of half-maximal effect; the source files actives as falling curves though it sought activators and does not explain the sign; nearly all actives have a fitted effect of over 65% in size; many hits overshoot -100%
# Target sequence (P80244 whole entry, looked up): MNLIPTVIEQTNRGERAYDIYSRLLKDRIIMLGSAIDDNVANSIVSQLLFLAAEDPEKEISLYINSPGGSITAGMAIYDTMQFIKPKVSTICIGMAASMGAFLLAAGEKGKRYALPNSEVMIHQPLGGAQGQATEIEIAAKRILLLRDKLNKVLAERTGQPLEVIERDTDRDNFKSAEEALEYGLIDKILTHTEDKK
#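 Buffer: 100 mM Tris/HCl pH8, 100 mM KCl, 0.05% low protease BSA, 2.5% glycerol, 0.01% Tween-20. ClpP 10 microg/mL final; 20 min RT; delta FRET normalized to ADEP and DMSO controls.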
# Sfp inh: inhibitors of Bacillus subtilis Sfp phosphopantetheinyl transferase. Biochemical Sfp PPTase activity, qHTS. AID 1490. Potency, µM, without a hit: max response, negative = inhibition, most hits filed as inhibitors. hit rate 3.5% among 310,000; active = well fitted inhibition curve with a large enough effect; inconclusive = small, poorly fitted or top-dose-only effect, or another doubt; inactive = no such curve, though single readings can be large or run the other way;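 note: the enzyme is Sfp with the accession as filed and its product quenches rhodamine fluorescence; potency is the fitted concentration of half-maximal effect; 0% = enzyme reaction without inhibitor and -100% = no enzyme wells; top concentration of the series not given in the record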
#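 With Hepes-Na pH 7.6 buffer containing 10 mM MgCl2, Sfp (15 nM) modified BHQ-2-YbbR (12.5 uM) using rhodamine-CoA (5 uM). Two reads 30 minutes apart at 525/598 nm yielded each well's rate.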
# TRPML1 ag: activates the human TRPML1 channel | Q9GZU1 | TRPML1-expressing cells, Ca2+ dye fluorescence, FDSS; host cell line not named in the record; reference of the full effect not given here | activation, % (concentration not given with the values) | hit rate 0.12% among 410,000; in the data active = activation above about 50%; inconclusive = about 30% to 50%; inactive = below about 30%; note: 0% is about no effect; the text of the record puts the active cut at 80%
#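 Calcium fluorescence on an FDSS kinetic reader gave the read-out. Tet-induced TRPML1-DL cells were plated overnight, dye-loaded (Ca8 with quencher, 45-90 min, room temperature, dark), then read 110 s after compound addition, and again 110 s after 4uM final 54-4 (EC80).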
# * hit, by the source's call; ? = inconclusive; · = not tested or not shown; [ ] = another dose, or the depositor's remark.
SMILES,Menin MLL FP FL,PINK1 expr mod,TRPML1 blocker,TRPV1 PAM,ClpP mod,Sfp inh,TRPML1 ag
CN(C)c1nc(C(=O)O)nc(N2CCOCC2)n1,0.6,-2.1%,-10,7,·,7%,0.9
O=C(NCCNC(=O)c1cnccn1)c1ccc(Cl)c(Cl)c1,-7.3,0.4%,-22,2,·,16%,-0.6
CCOc1ccccc1NC(=O)NCc1ccc2c(c1)OCO2,-1.3,1.5%,-4,-2,-3.2%,11%,0.6
Cc1ccc(S(=O)(=O)N2CCOCC2)cc1C(=O)NCc1cn2ccsc2n1,1.3,-2.4%,-1,-16,2.8%,8%,-0.6
CCOC(=O)c1cc(-c2ccc(F)cc2)n(CC(=O)NC2CCCCCC2)c1C,·,-0.9%,-1,·,1.6%,·,1.5
Cc1oc2c(c(C)cc3oc(=O)c(CC(=O)N[C@@H](CC(C)C)C(=O)O)c(C)c32)c1C,-6.0,-3.7%,-3,-7,-0.8%,4%,-0.1
COC(=O)CC1C(=O)NCCN1C(=S)Nc1ccccc1Cl (configuration not stated),-0.9,0.3%,9,26,-2.0%,8%,0.3
Cc1c(Cl)cccc1NC(=O)CSc1nc(=O)n(CCN2CCOCC2)c2c1CCC2,·,1.6%,5,·,-7.4%,·,-0.9
CC(C)CC(NC(=O)C(CO)NC(=O)C1CCC(=O)N1)C(N)=O (configuration not stated),0.6,1.3%,9,-2,·,10%,1.8
COc1c(F)c(F)c(C(=O)Nc2ccc3oc(-c4ccncc4)nc3c2)c(F)c1F,-1.5,13%,-29,-1,-9.2%,25%,0.2
CC(=O)NCCOC(=O)Nc1cccnc1,0.1,7.9%[38.3 µM],-2,11,-1.5%,17%,-0.1
Cc1cc(-c2ccc(S(=O)(=O)Nc3ccc(Cl)cc3)cc2)on1,·,0.5%,-30,·,-2.6%,·,14
CCn1c(SCC(=O)NCc2ccco2)nc2c(c1=O)SC(C)C2 (configuration not stated),0.5,0.7%,11,-6,-4.7%,40µM*,2.5
COc1cc(NC(=S)NCc2cccs2)cc(OC)c1,-0.1,3.1%,-3,-6,0.9%,10%,-0.8
CCOC(=O)c1sc2nccc(N(C)C)c2c1N=CNOCc1c(F)cccc1Cl,1.5,6.0%,54,9,?,-20%,1.1

# A draw from above in order of length of the SMILES, falling.
SMILES,Menin MLL FP FL,PINK1 expr mod,TRPML1 blocker,TRPV1 PAM,ClpP mod,Sfp inh,TRPML1 ag
CCOC(=O)c1cc(-c2ccc(F)cc2)n(CC(=O)NC2CCCCCC2)c1C,·,-0.9%,-1,·,1.6%,·,1.5
Cc1cc(-c2ccc(S(=O)(=O)Nc3ccc(Cl)cc3)cc2)on1,·,0.5%,-30,·,-2.6%,·,14
CCn1c(SCC(=O)NCc2ccco2)nc2c(c1=O)SC(C)C2 (configuration not stated),0.5,0.7%,11,-6,-4.7%,40µM*,2.5
COC(=O)CC1C(=O)NCCN1C(=S)Nc1ccccc1Cl (configuration not stated),-0.9,0.3%,9,26,-2.0%,8%,0.3
CN(C)c1nc(C(=O)O)nc(N2CCOCC2)n1,0.6,-2.1%,-10,7,·,7%,0.9
CC(=O)NCCOC(=O)Nc1cccnc1,0.1,7.9%[38.3 µM],-2,11,-1.5%,17%,-0.1

# Next part.
SMILES,Menin MLL FP FL,PINK1 expr mod,TRPML1 blocker,TRPV1 PAM,ClpP mod,Sfp inh,TRPML1 ag
CCC(C)/C=C/C1=CC2=C(Cl)C(=O)C3(C)OC(=O)C(C(=O)C(C)C(C)O)C3C2=CO1 (configuration not stated),1.6,-0.2%,·,-4,22µM*,32µM*,·
CCOC(=O)c1ccc(NC(=O)c2oc3ccc4c(c3c2C)C(=O)CC(C)(CC)O4)cc1 (configuration not stated),·,0.2%,24,·,?,·,-0.1
COc1ccc(CC2=C(O)c3ccccc3C(=O)C2=O)cc1,3.9,-0.5%,1,7,·,24%,-0.6
O=C(CCc1nnc(C2CCCCC2)o1)N1CCN(Cc2ccccc2)CC1,-0.5,-0.9%,5,9,·,-2%,1.4
CC(NCc1ccco1)C(=O)N1CCc2ccccc2C1 (configuration not stated),1.3,·,19,-18,-1.2%,-3%,0.0
CN(C(=O)c1ccc(NC(=O)Cc2ccc(NC(=O)C3CCN(C(=O)C4CCCCC4)CC3)cc2)cc1)C1CC1,·,2.6%,0,5,-3.8%,·,-0.4
C#CCOc1ccccc1/C=N/NC(=O)c1ccccc1OCc1ccccc1,·,1.0%,24,-1,-5.2%,-14%,2.3
CC(C)C[C@H](NC(=O)OC(C)(C)C)c1n[nH]c(=S)n1N,3.1,2.8%,3,-9,-3.4%,-52%,0.0
CCOc1ccccc1NC(=O)CN(c1nccs1)S(=O)(=O)c1ccc(N)cc1,2.8,1.2%,-16,24,1.4%,-10%,-0.2
COc1cc(COC(=O)Oc2ccc(CNC(C)=O)cc2OC)c([N+](=O)[O-])cc1OC,·,0.7%,-6,-4,0.9%,·,-0.5
O=C1C(=O)N(CCN2CCOCC2)C(c2cccc(Cl)c2)/C1=C(\O)c1ccc2c(c1)OCCO2 (configuration not stated),-0.5,-0.4%,1,1,-0.5%,26%,-0.7
CN(Cc1ccccc1)c1ccc(C(CC(N)=O)NC(=O)Cc2cccc3ccccc23)cc1[N+](=O)[O-] (configuration not stated),-0.5,0.0%,-1,?,-1.2%,-9%,-0.1
COc1cc(Cl)c(C)cc1NC(=O)c1cnn(-c2ccc(F)cc2F)c1C1CCN(C(=O)OC(C)(C)C)CC1,·,4.6%,-7,·,-25%,·,?
Cc1nn(-c2ccccc2)c2sc(C(=O)OCC(=O)N3CCCCC3)cc12,0.8,?,4,-9,-14%,-16%,0.8
COc1ccc(Cl)cc1NC(=O)CN(C)C(=O)CCC(=O)c1cc(C)sc1C,·,0.0%,24,-6,-0.4%,·,3.4
COC(=O)Cc1c(C)[nH]n(-c2cc(Cl)cc(Cl)c2)c1=O,-0.6,0.6%,21,4,·,0%,0.2
COc1cc(CC(=O)Nc2nc(-c3ccccc3)c(C(C)=O)s2)cc(OC)c1OC,-0.7,11%,6,9,·,2%,0.7
Cc1ccc(S(=O)(=O)CCN2CCN(c3ccccc3)CC2)cc1,-2.9,-2.9%,5,1,·,11%,-0.8
CCc1c2c(nc3ccc4c(c13)OCCO4)-c1nc3ccccc3c(=O)n1C2,-1.0,·,53,·,·,-6%,0.8
CCN(CC)CC(=O)Nc1nn(-c2ccccc2)nc1C(N)=O,3.8,-1.4%,-6,-2,-17%,-19%,0.1
Cc1ccccc1N=Nc1c(C)[nH]n(-c2ccccc2)c1=O,-2.6,2.6%,4,0,·,20%,-0.8
CCCC1(c2ccccc2)NC(=O)N(CC(=O)Nc2ccccc2C(F)(F)F)C1=O (configuration not stated),-7.7,2.5%,33,-2,·,1%,2.0
CCCCNC(=O)c1onc(CCl)c1C(=O)OC,-2.8,1.0%,32,5,-2.6%,6%,0.1
CCc1cccc(NC(=O)CCc2c(C)nc3c(c2C)c(=O)n(C)c(=O)n3C)c1,·,3.9%,-18,·,-23%,·,0.8
CCCN(CC(=O)Nc1ccc(C(N)=O)cc1)CC(=O)Nc1cc(Cl)ccc1Cl,3.4,12%,-3,5,·,24%,0.4
O=C(c1ccc2ccccc2c1)N1CCCC1,4.2,-0.9%,20,-13,-0.6%,19%,-0.6
O=C(c1ccco1)N1CCN(C(c2ccccc2Cl)c2nnnn2Cc2cccs2)CC1 (configuration not stated),1.5,-2.1%,-9,-5,0.3%,-8%,-0.9
O=C(Nc1cccc([N+](=O)[O-])c1)Nc1cnccn1,-1.5,-1.0%,0,3,-5.6%,2%,-0.6
S=C1NC(c2ccccc2)N2C(=S)NC(c3ccccc3)N12 (configuration not stated),3.9,-0.9%,20,10,-1.6%,56µM*,0.9
FC(F)Sc1ccc(NC(=S)NC2CCCCC2)cc1,3.3,8.8%[38.3 µM],-1,-17,-2.3%,-8%,0.3
O=C(COC(=O)COc1ccccc1)Nc1ncc([N+](=O)[O-])s1,·,2.0%,-12,-2,1.8%,·,0.5
Cn1c(=O)c(=O)n(C)c2cc(N3CCCCC3)c(NS(=O)(=O)c3ccc([N+](=O)[O-])cc3)cc21,·,1.2%,13,-1,-2.7%,-23%,0.7
CC1=C(C(=O)Nc2ccccc2)C(c2cccs2)n2nc(SCc3ccccc3)nc2N1 (configuration not stated),·,1.5%,12,·,-7.0%,·,-0.2
N#CC(=C(c1ccccc1)c1ccccc1)c1ccccc1,·,5.0%,?,·,5.1%,·,2.5
CCOc1ccc(OCCC(=O)OCC(=O)Nc2ccc3c(c2)OCCO3)cc1,·,-2.5%,-6,9,·,·,0.7
Cn1c(CNC(=O)c2ccco2)nnc1SCC(=O)c1ccccc1,-0.7,0.8%,7,5,·,-12%,-1.1
CCCN1C(=O)/C(=C2/C=Cc3ccccc3N2CC)SC1=S,18,-0.2%,32,12,2.3%,4%,2.9
COc1ccc(C(=O)NCC(c2cccnc2)N2CCN(c3ccccc3OC)CC2)cc1OC (configuration not stated),5.3,0.4%,-2,7,-3.2%,13%,-0.1
CCOc1ccc(NC(=O)c2ccc(-c3csc(C)n3)cc2)cc1,-1.7,-0.3%,-2,6,-22%,10%,0.5
COc1cccc(CNC(=O)c2cc3c(c(-c4cccc(-c5cccc(C#N)c5)c4)n2)[C@H](CCO)N(S(=O)C(C)(C)C)C3)c1 (some centres not stated),·,0.2%,-2,·,-8.9%,·,1.1
Cc1ccc(S(=O)(=O)N(C)C[C@@H]2OCc3cn(nn3)CCCC(=O)N([C@@H](C)CO)C[C@H]2C)cc1,·,0.6%,-5,·,0.5%,·,0.1
O=C(Nc1nnc(COc2ccc(F)cc2)s1)c1cccs1,2.6,11%,-18,9,-1.6%,1%,-0.3
COc1cc(C(=O)/C=C/Nc2ccc(NC(C)=O)cc2)cc(OC)c1OC,6.4,4.1%,0,-3,0.2%,-17%,0.6
Cc1ccc(CNS(=O)(=O)NCc2ccc(Cl)cc2)cc1,6.5,1.0%,-1,-3,1.7%,10%,0.3
CC(C)c1ccc(NC(=O)CCCc2nc(-c3ccc(Cl)cc3)no2)cc1,·,-1.2%,-11,·,1.7%,·,0.3
